Screening data (PubChem)
INS promoter inh – inhibitors of insulin promoter-driven GFP, primary screen, imaging, TRM-6 cells (human fetal islet line), eGFP reporter, cell count | reporter expression induced with tamoxifen | inhibition, % at 2 µM | 0.9% of 130,000 active | AID 1273, 2008;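 active means inhibition above the mean plus 3 SD, with well images judged a real hit on visual review, cut at about 60% in these data, passing the limit was not always enough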
RGS16-Gao HTS – modulators of RGS16 binding to Galphao, primary screen, biochemical, human proteins, multiplexed bead flow cytometry; Regulator of G-protein signaling 16 (Homo sapiens) + Guanine nucleotide-binding protein …; bead-based flow cytometry RGS16-Galphao binding, fluorescence; actives lie on both sides; binding response (% of control), % at 10 µM; 0.38% of 220,000 active; AID 1441, 2008;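 active means below 25% or above 175%, edge rows of some plates excepted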;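 further: Galphao activated by GDP with aluminum fluoride before binding; 100% = wells without compound and 0% = beads without RGS; some results beyond the cut were filed as inactive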
Target sequence (O15492 whole entry, looked up): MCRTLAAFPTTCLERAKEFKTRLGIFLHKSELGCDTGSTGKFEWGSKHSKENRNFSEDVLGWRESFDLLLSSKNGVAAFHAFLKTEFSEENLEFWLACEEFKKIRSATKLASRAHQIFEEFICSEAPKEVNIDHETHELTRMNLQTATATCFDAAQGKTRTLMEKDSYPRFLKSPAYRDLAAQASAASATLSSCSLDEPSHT
Target sequence (P09471 whole entry, looked up): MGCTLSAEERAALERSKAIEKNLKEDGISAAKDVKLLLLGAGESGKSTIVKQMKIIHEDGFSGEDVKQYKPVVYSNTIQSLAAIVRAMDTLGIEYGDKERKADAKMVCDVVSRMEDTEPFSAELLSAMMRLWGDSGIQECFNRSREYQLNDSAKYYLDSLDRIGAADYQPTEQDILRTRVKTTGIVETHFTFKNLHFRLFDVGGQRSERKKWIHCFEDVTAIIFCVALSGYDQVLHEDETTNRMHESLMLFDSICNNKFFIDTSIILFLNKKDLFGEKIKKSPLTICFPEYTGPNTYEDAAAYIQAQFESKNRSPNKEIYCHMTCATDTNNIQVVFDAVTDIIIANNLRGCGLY
GALR2 agonist – GALR2 receptor agonists, primary screen, cell-based; Galanin receptor type 2 (Homo sapiens), O43603; GALR2-expressing cells, agonist activation read-out; activation, %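 (tested at 5 µM)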; 0.48% of 140,000 active; AID 803, 2007;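 active means above mean plus 3 SD of all compounds, about 5% in these data, not always enough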;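 further: 0% = vehicle buffer wells and 100% = reference agonist at full effect; tested in CHO reporter cells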
Target sequence (O43603 whole entry, looked up): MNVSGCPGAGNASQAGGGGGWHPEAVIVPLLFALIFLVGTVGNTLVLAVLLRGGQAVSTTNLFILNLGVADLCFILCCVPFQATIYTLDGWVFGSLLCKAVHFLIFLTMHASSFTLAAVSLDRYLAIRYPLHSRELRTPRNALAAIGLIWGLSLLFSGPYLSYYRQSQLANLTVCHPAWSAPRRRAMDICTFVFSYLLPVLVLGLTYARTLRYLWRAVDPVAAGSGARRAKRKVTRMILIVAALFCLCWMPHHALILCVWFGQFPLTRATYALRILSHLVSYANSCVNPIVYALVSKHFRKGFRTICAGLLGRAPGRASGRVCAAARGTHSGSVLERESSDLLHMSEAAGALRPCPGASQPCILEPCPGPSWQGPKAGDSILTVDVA
HSV augment – enhancers of HSV replication in host cells, fold increase, host cell viability; AID 1956, 2009; 0.005% of 220,000 active; HSV replication augmentation in cells; maximum fold increase;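 active means peak rise of 1.5-fold or more in the series; tested in PC3 cells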;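 further: first round at 10 µM; read as green reporter fluorescence; hits show the peak of a series up to 25 µM; 1 = signal of infected wells without compound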
PKD1 inh – inhibitors of human PKD1 kinase, biochemical, fluorescence polarization; 0.056% of 200,000 active; Serine/threonine-protein kinase D1 (Homo sapiens), Q15139; inhibition, %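 (about 10 µM by stock and volumes)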; PKD1 kinase fluorescence polarization assay;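 active means inhibition of 50% or more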;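 further: controls were vehicle for no effect and a reference inhibitor for full effect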
INS promoter inh cell count – recorded beside INS promoter inh, whose call it bears; normalized cell count, %; measured here: cell count, toxicity; reference of the scale not given here;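 cells exposed to compound for 48 h; stained nuclei by imaging scaled within each plate; lower means fewer cells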
HSV augment primary fold – further read-out of HSV augment, marked with its call; fold increase; compound at 10 µM; measured here: primary screen fold increase 10 uM; tested in PC3 cells;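 GFP signal in the first replicate; 1 = infected wells without compound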
The depositor's hits bear a star; i = inactive; nt = no result given.

SMILES	INS promoter inh	INS promoter inh cell count	RGS16-Gao HTS	GALR2 agonist	HSV augment	HSV augment primary fold	PKD1 inh
Cn1ncc(Br)c1C(=O)N/N=C/c1cccc(OC2CSC2)c1	-33	89	108	0.4	i	0.83	-1
Cc1ccc(C2C(=O)N(C3CCCC3)CC(=O)N2CC2COc3ccccc3O2)cc1 (configuration not stated)	-3	93	103	-1.3	i	0.97	5
CN1CCN(S(=O)(=O)c2ccc(N)cc2)CC1	nt	nt	90	-2.6	i	0.9	-1
Cc1cccc(OCc2nnc(SCC(=O)c3ccccc3)o2)c1	-55	86	104	-0.2	i	0.92	2
O=S(=O)(NC1CC1)c1ccc(S(=O)(=O)N2CCCc3ccccc32)cc1	nt	nt	104	-1.4	i	0.85	3
CCCC/S(C)=N/S(=O)(=O)c1ccc(C)cc1 (configuration not stated)	0	98	107	-1.1	i	1	-8
CS(=O)(=O)Nc1ccc(C(=O)NC2CC3CCC2C3)cc1 (configuration not stated)	4	92	102	-3.0	i	0.94	-4
C=CCn1c(SCCN2CCOCC2)nc2c1c(=O)[nH]c(=O)n2C	33	122	97	-2.8	i	0.9	-13
O=C(Nc1ccccc1F)N(Cc1ccc(F)cc1)Cc1nc2ccccc2c(=O)[nH]1	nt	nt	108	nt	i	0.84	-2
CC(Sc1nnc2ccccn12)C(=O)Nc1ccc2c(c1)OCCO2 (configuration not stated)	nt	nt	101	nt	i	1	5
Cc1cccc(-n2ncc(C#N)c2N)c1	nt	nt	101	0.5	i	1	3
Cc1ccccc1CN(c1ccc(C(=O)Nc2cccnc2)cc1)S(C)(=O)=O	34	81	92	-1.2	i	0.77	-5
Cc1c(CN(C)C)c2c(n1Cc1ccccc1)C(=O)c1ccccc1-2	-100	87	66	-2.1	i	0.92	1
COc1cccc(NC(=O)c2ccc(S(=O)(=O)N3CCCCC3)cc2)c1	-10	225	102	-0.5	i	0.81	-6
Cc1cc(C(=O)OCCO)c(C#N)c(N)n1	9	85	99	-0.7	i	0.91	0
CC(=O)NC1C(=O)N(CC(C)C)c2ccccc21 (configuration not stated)	29	79	102	-2.2	i	0.93	-5
Cc1cccc(Nc2nnc(SCC(=O)NC3CCCc4ccccc43)s2)c1C (configuration not stated)	nt	nt	106	0.5	i	0.94	3
COCCN1CCC(CNCc2cn(-c3cc(C)ccc3C)nc2-c2ccccc2)C1 (configuration not stated)	nt	nt	104	nt	i	0.96	-4
O=C(Nc1cccc(S(=O)(=O)NCc2ccco2)c1)c1cc(-c2ccc(F)cc2)nc2ccccc12	15	72	34	-0.9	i	0.74	2
COc1ccc(Nc2nc(N)nc(CSC(=S)N3CCN(c4ccccc4)CC3)n2)cc1	nt	nt	103	-2.2	i	0.97	-9
CC(=N/O)/C(=N\O)c1ccc(C)o1	-29	79	47	-0.9	i	1.1	0
CN(C)/C=C/C(=O)c1ccc(Br)cc1	54	72	99	nt	i	0.74	-2
CC(CCc1ccccc1)NC(=O)/C=C/c1ccccc1 (configuration not stated)	19	79	96	-4.1	i	0.95	-1
CCCC(C)C(=O)Nc1ccccc1C(=O)OCC (configuration not stated)	39	122	96	-0.7	i	0.86	5
Cn1cnc(S(=O)(=O)Nc2ccccc2N2CCOCC2)c1	nt	nt	103	nt	i	1.1	nt
CCCn1c(C2CC(=O)N(c3ccc(C)cc3)C2)nc2ccccc21 (configuration not stated)	-17	126	104	0.0	i	0.84	-7
CCOC(=O)c1cc2c(nc1N)CC(C)(C)OC2	-17	91	109	-2.0	i	0.96	-3
O=C(CSc1nnc(CNC(=O)c2c(F)cccc2Cl)o1)Nc1ccc2c(c1)OCCO2	-21	94	99	-3.6	i	1.2	-4
COc1ccc(NC2CC(=O)N(C)C2=O)cc1 (configuration not stated)	-30	122	101	-1.1	i	0.9	4
COc1ccc(S(=O)(=O)NC(C)C)cc1C(=O)NC1CCCCC1	-58	91	106	-0.6	i	1	-4
Nc1cc(N)nc(SCC(=O)NCc2ccco2)n1	25	145	100	nt	i	0.99	-9
Cc1cc(C)nc(SCC(=O)N/N=C/c2cccs2)n1	10	90	94	-0.3	i	0.94	-4
COc1cccc(-c2csc(NC(=O)Oc3ccccc3)n2)c1	nt	nt	102	-0.1	i	1.1	15
CCN(CC)CCOC(=O)c1ccc(NC(=O)C(C)NC(=O)C23CC4CC(CC(C4)C2)C3)cc1 (configuration not stated)	-86	108	101	-0.2	i	0.97	3
Cc1nc(C)c2c(=O)cc(-c3ccccc3)[nH]c2n1	-47	123	104	0.3	i	0.61	-6
CN(/N=C/c1ccncc1)C1=NS(=O)(=O)c2ccccc21	nt	nt	101	-1.0	i	0.84	-4
CCOc1ccc(CNC(=O)CCn2c(=O)oc3ccccc32)cc1	-6	118	103	-4.1	i	0.83	0
CCOc1c2ccc(C(=O)NCc3ccc(C)cc3)cc2nn1CCOC	nt	nt	99	-1.5	i	0.66	2
Fc1ccc(OCCOCCNCC2CCCO2)cc1 (configuration not stated)	-32	130	107	-1.4	i	1	2
Cc1c(C(=O)NCc2ccccn2)oc2ccc(S(=O)(=O)N3CCOCC3)cc12	-28	84	108	-1.8	nt	nt	-2
COc1ccc(/C=N/n2c(-c3ccc(C)cc3)n[nH]c2=S)cc1OC	nt	nt	99	nt	i	1.1	nt
Fc1ccc(C(CCCn2nnc(-c3cccnc3)n2)c2ccc(F)cc2)cc1	-38	127	101	-0.3	i	0.95	-6
COc1ccc(/C=N/NC(=O)CCn2nc(C)cc2C)cc1	nt	nt	103	nt	i	0.95	nt
O=[N+]([O-])c1cc(S(=O)(=O)Nc2ccccc2)ccc1-n1nnc2ccccc21	8	81	96	-0.7	i	0.85	2
CN(c1ccc(C(=O)NCCSCc2ccc(Cl)cc2)cc1)S(=O)(=O)c1ccccc1	-16	112	107	1.8	i	1.1	-11

Five of the entries above in order of their number in PKD1 inh, falling:
Structure	PKD1 inh
Cc1cccc(Nc2nnc(SCC(=O)NC3CCCc4ccccc43)s2)c1C (configuration not stated)	3
CCOc1c2ccc(C(=O)NCc3ccc(C)cc3)cc2nn1CCOC	2
CN1CCN(S(=O)(=O)c2ccc(N)cc2)CC1	-1
COc1cccc(NC(=O)c2ccc(S(=O)(=O)N3CCCCC3)cc2)c1	-6
C=CCn1c(SCCN2CCOCC2)nc2c1c(=O)[nH]c(=O)n2C	-13

(further entries)
SMILES	INS promoter inh	INS promoter inh cell count	RGS16-Gao HTS	GALR2 agonist	HSV augment	HSV augment primary fold	PKD1 inh
O=C(CNC(=O)c1ccc(Br)cc1)OCc1cc([N+](=O)[O-])cc2c1OCOC2	nt	nt	99	nt	i	0.95	-4
O=C(CSc1nccc(=O)[nH]1)Nc1cccc(S(=O)(=O)N2CCOCC2)c1	nt	nt	101	nt	i	1	-12
COc1ccc(CNC(=O)C(C)N(Cc2ccco2)C(=O)c2snc(C(N)=O)c2N)cc1 (configuration not stated)	nt	nt	104	-0.3	i	0.98	-3
CC(C)(C)NC(=O)C1Cc2ccccc2CN1 (configuration not stated)	-45	69	97	nt	i	1.1	-8
c1ccc(-c2nnc3sc(Cc4cccs4)nn23)cc1	-1	90	95	-1.1	i	0.9	2
COc1cccc(C(=O)Nc2cc(=O)n(C)c(=O)n2C)c1	nt	nt	74	nt	i	0.9	nt
O=C(Cc1ccc(Cl)cc1)Nc1ccc(CN2CCCCC2)cc1	nt	nt	107	nt	i	1	nt
Cc1noc(C)c1C(=O)OCC(=O)Nc1cccc(S(=O)(=O)N(C)C)c1	14	130	103	3.7	i	1	-4
COc1ccc(OC)c(C(=O)CN2CCN(S(=O)(=O)c3ccc(Br)cc3)CC2)c1	33	78	103	-1.3	i	0.96	1
CCOc1ccc(C(=O)Nc2ccc(N3CCN(C(C)=O)CC3)cc2)cc1[N+](=O)[O-]	nt	nt	97	nt	i	0.92	-5
O=C(Cn1cnc2cc([N+](=O)[O-])ccc2c1=O)Nc1ccccc1Cl	nt	nt	99	nt	i	1.1	nt
Cn1c2ccc(F)cc2c2ncn(CCN3CCOCC3)c(=O)c21	14	69	102	-0.3	i	0.85	-3
COc1ccc(NC(=O)CSc2nnc(NC(C)=O)s2)c([N+](=O)[O-])c1	nt	nt	109	nt	i	0.9	-6
Cc1cc(C)nc(-n2nc(C)cc2NC(=O)CNC(C)c2ccccc2)n1 (configuration not stated)	-6	101	103	-0.9	i	0.8	-11
CC(C)Cn1[nH]c2c3c(ccc2c1=O)C(=O)c1ccccc1C3=O	0	100	98	0.4	i	0.69	10
CCC(CC)c1nnc(NC(=O)c2cccnc2SC)s1	nt	nt	99	nt	i	0.93	-2
Cc1oncc1C(=O)NC1CCCCC1	9	78	100	nt	i	1	-6
CCCn1ncc(CN2CCC(CO)(Cc3ccc(OC)cc3)CC2)c1C	nt	nt	99	nt	i	0.97	4
O=C(CC1SC(=O)N(Cc2cccc3ccccc23)C1=O)Nc1nccs1 (configuration not stated)	-21	127	100	-1.8	i	0.98	25
CCN1CCN(C(c2cccs2)C(C)NS(=O)(=O)c2ccc(C)cc2)CC1 (configuration not stated)	55	79	106	nt	i	0.95	-1
O=C(Nc1ccccc1)C1C2CCC3C(CCC21)C3(Cl)Cl (configuration not stated)	17	63	102	-1.1	i	0.85	3
Fc1ccccc1COc1ccc(Br)cc1CNCC1CCCO1 (configuration not stated)	nt	nt	99	nt	i	0.65	0
Cc1ccc(S(=O)(=O)Nc2ccc(Br)cc2C(NCC(=O)O)c2ccccc2)cc1 (configuration not stated)	-14	108	100	0.3	i	0.97	0
Cc1ccc(-c2nnn(CC(=O)N(Cc3cccs3)C(C(=O)NC(C)(C)C)c3ccco3)n2)o1 (configuration not stated)	nt	nt	100	0.1	i	1	3
COc1cc(CNCCc2ccc(F)cc2)ccc1OCc1ccc(Cl)nc1	-32	114	83	-1.4	i	0.89	-7
O=C(O)CSCC(=O)N1CCN(S(=O)(=O)c2ccccc2)CC1	nt	nt	102	nt	i	0.96	1
O=S(=O)(c1ccc(F)cc1)N1CCN(C(=S)NCc2ccco2)CC1	nt	nt	109	-0.8	i	0.91	-3
COc1ccc(/C=C/C(=O)c2cc(Br)ccc(=O)c2O)cc1	43	101	101	0.3	i	1.2	-7
O=C(c1ccccc1CCc1ccccc1)N1CCOCC1	43	131	99	-1.3	i	0.99	-1
CN1/C(=C\C(=O)COC(=O)C2COc3ccccc3O2)C(C)(C)c2ccccc21 (configuration not stated)	nt	nt	89	-3.3	nt	nt	1

2 compounds from above with just HSV augment, RGS16-Gao HTS and INS promoter inh cell count:
SMILES | HSV augment | RGS16-Gao HTS | INS promoter inh cell count
Cc1ccc(-c2nnn(CC(=O)N(Cc3cccs3)C(C(=O)NC(C)(C)C)c3ccco3)n2)o1 (configuration not stated) | i | 100 | nt
COc1cc(CNCCc2ccc(F)cc2)ccc1OCc1ccc(Cl)nc1 | i | 83 | 114

Later entries
SMILES	INS promoter inh	INS promoter inh cell count	RGS16-Gao HTS	GALR2 agonist	HSV augment	HSV augment primary fold	PKD1 inh
Cc1cccc(NC(=O)CCNS(=O)(=O)c2cccc3nsnc23)c1	0	91	101	-2.5	i	0.89	-4
Cc1ccc(C(=O)CNc2ccc(Br)cc2)cc1	0	138	72	-2.0	i	0.91	-2
N#C/C(=C\c1c(N2CCCCC2)nc2ccccn2c1=O)S(=O)(=O)c1ccccc1	nt	nt	116	nt	i	0.95	nt
Cc1ccoc1C(=O)N1CCCC(CCC(=O)N2CCN(c3ccccn3)CC2)C1 (configuration not stated)	nt	nt	86	nt	i	1.2	1
COc1cc(OC)c(C(=O)NCCCN2CCOCC2)cc1OC	-100	126	97	nt	i	0.78	-3
O=C(NC(=S)NCc1cccnc1)c1ccc([N+](=O)[O-])cc1	20	96	101	nt	i	0.87	1
O=C(Cn1nnc(-c2cccs2)n1)NNC(=O)c1ccccc1Cl	nt	nt	104	nt	i	0.93	nt
CSc1ccc(/C=C/C(=O)OCC(=O)NC(C)C)cc1	-26	94	96	nt	i	1	-3
O=S(=O)(c1cccc(F)c1)N1CCN(Cc2ccc3c(c2)OCO3)CC1	-71	56	120	-1.5	i	0.93	4
CC(C)NCCOCCOc1ccc(Cl)cc1Br	-23	64	125	-0.9	nt	nt	4
Cc1cc(C)c(NC(=O)CCCOC(=O)C2=COCCO2)c(C)c1	nt	nt	86	-3.4	i	1	8
CC(=O)[C@@H]1[C@@H](C(=O)c2ccc(C)cc2)[C@]2(C(=O)Nc3ccccc32)[C@H]2C=Cc3cc(F)ccc3N12	nt	nt	79	-0.3	i	1.2	3
O=C(O)C12CC3CC(C1)CC(n1cnc(Cl)n1)(C3)C2	100*	2.0*	104	-1.9	i	1	1
Cc1oc(CN2CCOCC2)cc1C(=O)O	nt	nt	96	nt	i	1	6
